# Source: PubChem
# KCNQ2 pot = KCNQ2 (rat) channel potentiation. CHO-K1 KCNQ2, FluxOR thallium flux fluorescence; stronger effect = higher value. B-score at 10 µM. actives 0.54% (n = 310,000). AID 2239;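 active = fluorescence ratio B-score at least 3 SD of library B-scores, with initial fluorescence B-score within 3 SD, cut at about 5.3 in these data; same plate scores as AID 2156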;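 also: B-score of peak minus minimum over baseline fluorescence ratio after K+ and Tl+ stimulus; positive B-score means potentiation of KCNQ2 with more thallium influx and brighter signal; only the inactives scoring about 0 or higher are listed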
# Target sequence (O88943 whole entry, looked up): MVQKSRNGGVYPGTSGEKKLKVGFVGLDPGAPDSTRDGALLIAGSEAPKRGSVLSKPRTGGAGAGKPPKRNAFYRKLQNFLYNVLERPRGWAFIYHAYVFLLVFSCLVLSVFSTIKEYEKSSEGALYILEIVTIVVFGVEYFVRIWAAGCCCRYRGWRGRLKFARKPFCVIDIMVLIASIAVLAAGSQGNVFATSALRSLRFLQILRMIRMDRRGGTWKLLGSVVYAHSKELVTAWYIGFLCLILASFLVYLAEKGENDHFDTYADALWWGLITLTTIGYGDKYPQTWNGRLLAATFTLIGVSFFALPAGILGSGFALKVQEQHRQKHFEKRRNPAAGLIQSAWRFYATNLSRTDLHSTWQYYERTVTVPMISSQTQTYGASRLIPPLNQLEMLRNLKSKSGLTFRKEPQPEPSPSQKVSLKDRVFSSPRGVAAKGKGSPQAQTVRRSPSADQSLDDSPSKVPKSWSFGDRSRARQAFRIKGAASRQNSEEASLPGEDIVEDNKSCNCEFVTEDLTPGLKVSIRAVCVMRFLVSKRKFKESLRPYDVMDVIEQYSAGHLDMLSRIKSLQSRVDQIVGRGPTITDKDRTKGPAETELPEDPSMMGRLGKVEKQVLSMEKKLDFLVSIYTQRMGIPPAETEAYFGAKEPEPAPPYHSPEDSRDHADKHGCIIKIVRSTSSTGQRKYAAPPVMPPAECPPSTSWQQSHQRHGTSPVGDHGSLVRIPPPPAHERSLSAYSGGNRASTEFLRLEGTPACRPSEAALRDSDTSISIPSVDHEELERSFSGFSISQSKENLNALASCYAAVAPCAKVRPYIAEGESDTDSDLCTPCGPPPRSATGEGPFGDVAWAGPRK
# KCNQ2 pot baseline = further read-out of KCNQ2 pot, marked with its call; B-score; compound at 10 µM; measured here: initial fluorescence intensity artifact check;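 brightness before thallium and not channel activity; 0 = typical well and far values either way flag optical interference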
# Starred values were filed as active, the others as inactive. A portion of the library; count on the stated rates, not on these rows.
SMILES,KCNQ2 pot,KCNQ2 pot baseline
COc1ccc(C(=O)N/N=C(\C)Cn2cnc([N+](=O)[O-])n2)cc1,0.71,2.6
COC(=O)N/N=C/c1cccnc1,0.9,-0.76
Nc1ncnc2nc(SCC(=O)Nc3ccccc3F)[nH]c12,3,0
Cc1cc(C)cc(N(C(=O)CCC(=O)Nc2ccccn2)C(C(=O)NC(C)C)c2ccc(O)cc2)c1 (centres undefined),2.4,5.1
O=C(NCCN1CCCCC1)Nc1ccccc1Cl,1.9,1.8
COC(=O)c1c(-c2snnc2C)n[nH]c1C,0.69,1.2
COc1cccc(C2c3[nH]c4ccccc4c3C[C@H]3C(=O)N(CCCO)CC(=O)N23)c1OC (some centres undefined),0.75,0.07
CCOC(=O)C1CCN(C(=O)C2CCN(S(=O)(=O)c3cc(Cl)ccc3Cl)CC2)CC1,0.1,0.66
CC1(C)C(=O)Nc2ccccc2N1C(=O)COc1ncnc2c(Cl)cc(Cl)cc12,0.02,-0.55
CCOCCCNC(=O)CCCn1nc(C)n2c(cc3sccc32)c1=O,0.75,-0.16
CC1CCCCN1CCNC(=O)c1ccc2c(c1)N(Cc1ccccc1)C(=O)c1ccccc1S2(=O)=O (centres undefined),0.33,-0.84
CCN1C(=O)C2(C(C#N)=C(N)Oc3cc(C)oc(=O)c32)c2ccccc21 (centres undefined),1.6,1.1
CCn1c(CC(=O)Nc2ccccc2)n[nH]c1=S,2.2,-0.56
CCCCN(C)CCOc1ccccc1OCC,1,0.32
CC1CCN(S(=O)(=O)c2cccc(C(N)=O)c2)CC1,0.09,1.3
C/C(=N/NC(=O)CN1CCN(Cc2ccccc2Cl)CC1)c1ccncc1,1.8,0.03
CNC(=O)CSc1nnc(-c2cccnc2)n1CCc1ccccc1,0.03,0.29
COC(=O)c1cccc(-n2c(C)cc(C=O)c2C)c1C,0.25,2.1
CC(C)(C)NC(=O)CN(C(=O)C(=O)Nc1ccc2c(c1)OCCO2)N1CCOCC1,2.1,0.16
O=C(Nc1nnc(-c2ccccn2)o1)c1cccc(Br)c1,0.38,0.68
Cc1nnc(NC(=O)C2CCN(C(=O)c3ccco3)CC2)s1,2.5,-1.1
O=C(CCS(=O)(=O)c1cccs1)N1CCCC1,0.11,0.11
COc1ccccc1OCCC(=O)OCC(=O)Nc1ccc(Br)cc1F,0.26,1.3
O=C(Cn1nc(Cl)nc1Cl)c1ccc(F)cc1,0.04,-0.01
CC(=O)C(C)Oc1ccc2c3c(c(=O)oc2c1)CCCC3 (centres undefined),0.85,-1.1

# Compound profiles (already shown). Screens in order: KCNQ2 pot | KCNQ2 pot baseline
# Profile of COC(=O)c1c(-c2snnc2C)n[nH]c1C : 0.69 | 1.2
# Profile of Nc1ncnc2nc(SCC(=O)Nc3ccccc3F)[nH]c12 : 3 | 0
# Profile of CC1CCCCN1CCNC(=O)c1ccc2c(c1)N(Cc1ccccc1)C(=O)c1ccccc1S2(=O)=O (centres undefined) : 0.33 | -0.84

# Continuation.
SMILES,KCNQ2 pot,KCNQ2 pot baseline
Cc1c(C(=O)O)sc2nc(/C=C/c3cccc(O)c3)[nH]c(=O)c12,0.64,-0.08
Cc1c(Cl)c([N+](=O)[O-])nn1CCCC(=O)Nc1c(Cl)cccc1Cl,0.98,-0.76
O=C(Nc1ccc(NC(=S)NC(=O)C(c2ccccc2)c2ccccc2)cc1)c1ccccc1,0.72,-0.04
O=c1c(-c2ccccc2)c(O)c2c(n1-c1ccccc1)CCCC2,1.8,-0.92
CCC1Cc2c(nc(N)c3c(N)nc(N4CCCCC4)c(C#N)c23)O1 (centres undefined),1,-2.1
CC1(C)CC(=O)C=C(Nc2cccc(F)c2)C1,0.03,1.9
CCC(C(=O)NCc1ccco1)n1nc(C)c2c(C)n(-c3ccc(C)cc3)nc2c1=O (centres undefined),0.31,-0.97
Cc1cc(=O)oc2c(C(=O)/C=C/c3ccccc3)c(O)ccc12,1.9,0.69
O=C(Nc1ccc2ccccc2c1)c1ccccc1O,0.87,-0.94
Cn1c(NCCO)nc2c1c(=O)n(Cc1ccc(F)cc1)c(=O)n2C,0.64,1.3
Cc1ccnc(SC2CC(=O)N(c3ccc(F)cc3)C2=O)n1 (centres undefined),0.03,-0.37
COC(=O)CSC(=S)N1CCCC(C)C1 (centres undefined),0.01,1.7
O=S(=O)(c1ccc(OCC(O)CNCc2ccco2)c(Cl)c1)N1CCOCC1 (centres undefined),0.01,2
CCn1c(C)c(C)c2cc(C(=O)NCCCN3CCCCCC3)ccc21,0.52,-0.89
CCCOc1ccc(C(=O)CCC(=O)OC(C)C(=O)Nc2ccc(NC(C)=O)cc2)cc1 (centres undefined),2.9,-0.87
COc1ccc(NC(=O)CSc2nc(O)cc(=O)n2-c2ccc(OC)cc2)cc1,0.68,0.99
CCOc1ccc(-c2nnc(SCC(=O)Nc3ccc4c(c3)c3ccccc3n4CC)n2N)cc1,1.5,-0.23
COc1ccc(CCNC(=O)CCc2ccsc2)cc1OC,0.07,0.02
Cc1ccc(-c2c[n+](CC(=O)Nc3cc(=O)n(C)c(=O)n3C)c3n2CCC3)cc1,1.6,0.07
Cc1cc(C)cc(CC(CC(=O)Nc2ccc(Cl)cc2)C(=O)O)c1 (centres undefined),0.69,-0.71
CS(=O)(=O)N1N=C(c2ccco2)CC1c1ccc(Cl)cc1 (centres undefined),0.62,0.02
CC(C)C(=O)Nc1ccc2c(c1)C(=O)N(CCC(=O)O)C2=O,0.3,1.8
O=C(NC1CCCCC1)C(=S)NCc1ccccc1,1,-3
Cn1c(Cn2c(=O)sc3ccccc32)nnc1SCC(=O)N1CCCC1,1.8,1.2
CCN(CC)S(=O)(=O)c1ccc(C(=O)OCC(=O)NCCN2C(=O)CSC2=O)cc1,0.54,0.39

# Three compounds already listed, ordered by their value in KCNQ2 pot baseline, rising:
SMILES,KCNQ2 pot,KCNQ2 pot baseline
CCn1c(CC(=O)Nc2ccccc2)n[nH]c1=S,2.2,-0.56
O=C(Nc1nnc(-c2ccccn2)o1)c1cccc(Br)c1,0.38,0.68
Cc1cc(=O)oc2c(C(=O)/C=C/c3ccccc3)c(O)ccc12,1.9,0.69

# Next records:
SMILES,KCNQ2 pot,KCNQ2 pot baseline
COC(=O)N1[C@H](Cc2ccccc2)C=C[C@]1(C)C(=O)O,0.09,1.9
CC(=O)N1CCC(C(=O)Nc2nc(-c3ccccc3)ns2)CC1,0.02,0.35
CN(C)S(=O)(=O)c1cccc2nsnc12,0.66,0.39
O=C(NCc1ccccn1)c1ccc(CNS(=O)(=O)c2cccc(Cl)c2)cc1,1.6,0.44
CCC(Cc1ccccc1)NC(=O)CCn1cccc1 (centres undefined),0.71,1.2
O=C(Oc1ccc2c(c1)OCO2)c1cccs1,0.56,-1.6
Cc1ccc(OCC(=O)NC2CCS(=O)(=O)C2)cc1 (centres undefined),0.06,-0.58
c1ccc(CCNCC2COc3ccccc3O2)cc1 (centres undefined),0.44,2.1
CCOC(=O)CCc1c(C)nc2cc(-c3ccc(F)cc3)[nH]n2c1=O,0.02,-0.06
O=C1CCCN1CCCNc1ncnc2c1[nH]c1ccc(Cl)cc12,0.13,2.1
CC1CCCN(CC(O)COCc2ccc3c(c2)OCO3)C1 (centres undefined),1.2,-1
CC(=O)n1c(Cl)c(NC(=O)CCl)c2ccccc21,1.7,-0.85
Nc1cccc(Oc2cnccn2)c1,1.1,1
Cc1nn(-c2ccccc2)c(N2CCCCC2)c1/C=N/NC(=O)c1ccncc1,0.15,0.43
c1ccc(-n2cnc3cc(NCc4ccccn4)ccc32)cc1,1.3,-2
COc1ccc(C2CC(=O)OC3=C2C(=O)CC(C)(C)C3)c(OC)c1 (centres undefined),0.09,0.07
NC(=O)COC(=O)c1ccccc1OCc1ccc(Cl)cc1,0.83,0.66
Cc1ccccc1NC(=O)C1CCCN(S(=O)(=O)c2c(C)noc2C)C1 (centres undefined),0.91,-2.9
CC(=O)c1cccc(CN2CCC(CO)(Cc3ccccc3)CC2)c1,0.72,0
COc1ccc(-c2nnc(SCC(=O)N3CCCCC3)o2)cc1OC,1.1,1.2
CC(=O)Nc1ccc(-c2nc3cc(Cl)ccc3o2)cc1,0.76,-0.91
O=C(NN1C(=O)C2C(C1=O)C1C=CC2C12CC2)c1ccc(Cl)cc1 (centres undefined),0.78,-1.5
CCOP1(=O)OCC2OC(n3cnc4c(N)ncnc43)C(O)C2O1 (centres undefined),0.55,0.13
CC(C)Sc1ncc(S(=O)(=O)c2ccccc2)c(=O)[nH]1,2.3,-0.35
CCNC(=O)C1CC(=O)N(CCCc2ccccc2)C(=Nc2ccccc2)S1 (centres undefined),0.82,0.31

# Taken from above.
# Value of COC(=O)N1[C@H](Cc2ccccc2)C=C[C@]1(C)C(=O)O in KCNQ2 pot: 0.09
# Value of O=C1CCCN1CCCNc1ncnc2c1[nH]c1ccc(Cl)cc12 in KCNQ2 pot baseline: 2.1
# Value of NC(=O)COC(=O)c1ccccc1OCc1ccc(Cl)cc1 in KCNQ2 pot: 0.83
# Value of O=C(NCc1ccccn1)c1ccc(CNS(=O)(=O)c2cccc(Cl)c2)cc1 in KCNQ2 pot: 1.6
# Value of CCNC(=O)C1CC(=O)N(CCCc2ccccc2)C(=Nc2ccccc2)S1 (centres undefined) in KCNQ2 pot: 0.82

# Other compounds:
SMILES,KCNQ2 pot,KCNQ2 pot baseline
Cc1ccc(C)c(S(=O)(=O)N2CCN(C(=O)c3cccnc3)CC2)c1,0.76,-0.02
N#C/C(=C\c1ccc(OCc2ccc(C(=O)O)cc2)cc1)C(=O)NCc1ccccc1,1.1,-1.2
CC(CCCC(C)(C)O)NC(=O)c1ccc2oc(CCc3ccccc3)nc2c1 (centres undefined),1.2,0.07
CCS(=O)(=O)c1ccc2oc(SCC(=O)NCc3ccccc3)nc2c1,2.2,0.09
CNC(=O)c1cc(Nc2nnc(-c3ccc(C)c(S(N)(=O)=O)c3)c3ccccc23)ccc1OC,0.04,-1.2
CN(c1cccc(NC(=O)CSc2ccc(Cl)cc2)c1)S(C)(=O)=O,1.9,-1.2
CCCOc1ccc(/C=N/NC(=S)Nc2ccccc2[N+](=O)[O-])c(O)c1,1.1,-0.84
CCN(C(=O)c1cccc(F)c1)c1ccccc1C,0.95,0.01
COC(=O)N/N=C/c1ccc(OCCSc2ccc(Cl)cc2)c(OC)c1,0.32,0.18
Cc1cccc(NC(=S)N2CCCCCC2)c1,0.95,-1.7
Cn1c(=O)[nH]c(=O)c2c1nc(N1CCN(C(c3ccccc3)c3ccccc3)CC1)n2CCO,1.2,-1.9
N[C@@H](CO)c1cn([C@@H](Cc2cc3ccccc3[nH]2)C(=O)N2CCNCC2)nn1,0.71,0.07
CCc1ccc2n(-c3ccc(OC)cc3)c([S-])c(C(=O)Nc3cc(C)cc(C)c3)[n+]2c1,0.58,-1.2
COc1ccccc1-n1c(CCC(=O)O)ccc1-c1ccccc1,3.2,-0.92
Cc1nn(CC(=O)Nc2ccc3c(c2)oc2ccccc23)c(=O)c2ccccc12,1.5,1.5
CCOc1ccc(NC(=O)CSc2ncnc3c2sc2ccccc23)cc1,0.28,0.01
NC1=NC(=O)C(CC(=O)Nc2ccc3c(c2)OCO3)S1 (centres undefined),0.23,0.47
COc1ccccc1NS(=O)(=O)c1ccc(N/N=C/C=C/c2ccccc2[N+](=O)[O-])c([N+](=O)[O-])c1,0.38,-0.31
COc1ccccc1/C=N/NC(=O)c1cccc(OC(F)(F)C(F)F)c1,0.03,0.59
CC1CCCC(C)N1C(=O)c1cc(F)c(F)cc1Cl (centres undefined),0.07,1.6
C/C(N)=C(/C#N)C(=O)CSc1nnc(-c2ccccc2)n1C,0.32,-0.15
Cc1cc(C)n(CCC(=O)Nc2ccc3c(c2)OCCO3)n1,2.2,-1.7
Cc1ccc(NS(=O)(=O)c2ccc3c(c2)c(=O)n(C)c(=O)n3C)cc1F,0.62,3.2
O=C(O)C1CCCN1S(=O)(=O)c1ccc2[nH]c(=O)c(=O)[nH]c2c1 (centres undefined),0.98,0.01
O=C(c1cccs1)N1CCC(c2ccccc2)C1 (centres undefined),0.1,-0.05
SMILES,KCNQ2 pot,KCNQ2 pot baseline
NC(=O)COC(=O)c1ccccc1Nc1ccc(SC(F)F)cc1,1.1,-0.39
Cc1nnc(NC(=O)C2=COCCO2)s1,1.5,0.06
Cc1cc[n+](-c2nc3ccccc3nc2[N-]S(=O)(=O)c2ccccc2)cc1,1,-0.01
O=C(CSc1cccs1)Nc1ccc(Cl)cc1,0.28,1.6
Cc1nn(-c2ccccc2)c(C)c1/C=N/n1c(-c2ccncc2)n[nH]c1=S,0.61,0.18
COc1cc(/C=N\N=C2/SC(CC(=O)O)C(=O)N2c2ccc(O)cc2)ccc1O (centres undefined),0.05,-0.03
COCCn1cc(C(=O)NCc2ccco2)c2c3ccccc3n(C)c2c1=O,0.07,-0.05
COc1cccc(C2C(=O)c3ccccc3C2=O)c1,0.63,1.8
Cc1nn(CC(=O)NCc2ccco2)c(C)c1[N+](=O)[O-],0.41,0.76
COc1ccc(NC(=O)c2ccc(F)cc2)cc1S(=O)(=O)Nc1cc(C)ccc1Br,2.4,-0.52
CC(=O)C1=C(O)C(=O)N(c2ccc(O)cc2)C1c1ccc(C)cc1 (centres undefined),1.5,-0.44
Cc1nnsc1C(=O)N1CCN(c2ccc(C#N)cn2)CC1,0.65,0.13
Cc1cccc(NC(c2ccc(C)s2)c2ccc3ccc(C)nc3c2O)n1 (centres undefined),0.82,-1
Cc1ccc(S(=O)(=O)N2CCC(C(=O)NCc3ccncc3)CC2)cc1,0.53,1.2
CC(=O)Nc1ccc(OCc2cccc([N+](=O)[O-])c2)cc1,0.59,1.1
CCCCOc1ccc(CC(=O)NCC(=O)O)cc1,0.36,0.44
CCOC(=O)c1cnc(-c2ccccc2O)nc1Cl,1.7,-0.54
Nc1c(C(=O)Nc2cccc(F)c2)nnn1-c1ccc2c(c1)OCCO2,0.01,0.32

# 2 consecutive entries from above, for reference:
SMILES,KCNQ2 pot,KCNQ2 pot baseline
NC(=O)COC(=O)c1ccccc1Nc1ccc(SC(F)F)cc1,1.1,-0.39
Cc1nnc(NC(=O)C2=COCCO2)s1,1.5,0.06
